High-throughput results: PubChem BioAssay, several laboratories
RanGTP-Imp inh: inhibitors of RanGTP-importin-beta interaction, primary screen, biochemical, FRET, CFP-Ran, YFP-importin-beta, homogeneous; cell-free CFP-Ran/YFP-importin-beta FRET ratio; inhibition, % (no concentration beside the values); actives 1.1% (n = 300,000);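 active = most replicates above 15%; inconclusive = exactly half above 15%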;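 also: 0% = DMSO wells and 100% = Ran loaded with GDP instead of GTP; wells of about 40 µL received 100 nL stock; the first replicate is given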
Beta cell apopt: inhibitors of cytokine-induced beta cell apoptosis, primary screen, luminescence; INS-1E cytokine-induced death, ATP luminescence, 48 h; percent of positive-control rescue, neutral wells zero; protection from apoptosis, % (concentration not given with the values); actives 0.8% (n = 300,000);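 active = all replicates at 75% or more, or half of them and the mean; inconclusive = half reach 75% but not the mean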;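 also: 0% = cytokine-treated negative control wells and 100% = positive control rescue; higher means more ATP so stronger rescue from cytokine killing; wells of about 40 µL received 100 nL stock; the first replicate is given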
Calb FLC: C. albicans growth inhibition with fluconazole, primary screen, CaCi-2 strain, Alamar Blue fluorescence; C. albicans CaCi-2 (fluconazole-resistant clinical isolate) + fluconazole, 48 h; growth inhibition, % (no concentration beside the values); actives 0.57% (n = 300,000); AID 1979, 2009;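 active = most replicates above 75%; inconclusive = exactly half above 75%; inactive = most below 75%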;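 also: all wells also contain fluconazole at 8 µg/ml as a sub-toxic cotreatment; 0% = median of DMSO wells and 100% = median of geldanamycin control wells; wells of about 8 µL received 7.5 nL stock; the first replicate is given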
MLL AF4-AF9 inh: inhibitors of AF4 peptide binding to AF9, primary screen, biochemical, AlphaScreen, biotin-AF4 peptide, FLAG-AF9, single point; Protein AF-9 (Homo sapiens), P42568; inhibition, % at 10 µM; actives 0.47% (n = 350,000);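 active = every replicate reaching a set inhibition limit, whatever the replicate mean, cut at about 25% in these data; inconclusive = mean inhibition reaches that limit but some replicates miss it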;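 also: 0% = plate neutral control median and 100% = total signal loss; the record names both 10 and 1 µM as test concentration; the first replicate is given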
A1 inh: caspase 3/7 activation in MEF A1-2A-BIM cells, primary screen, A1 inhibitor project, cell-based, luminescence, HTS; Caspase-Glo 3/7 luminescence, 3 h; percent of clofoctol response, vehicle zero; caspase activation, % (no concentration beside the values); actives 0.066% (n = 330,000); AID 2462, 2010;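 active = over half of replicate activation scores above 10%, or exactly half above 10 with the replicate mean above 10; inconclusive = replicate mean below 10 yet half the replicates above 10; inactive = over half of replicates below 10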;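 also: wells of about 30 µL received 50 nL stock; many hits fall short of the cut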
T cruzi repl: inhibitors of intracellular T. cruzi growth, primary screen, luminescence, NIH3T3 host cells. AID 1885, 2009. actives 1.4% (n = 300,000). inhibition, % (no concentration beside the values). T. cruzi beta-gal in NIH3T3, 90 h;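 active = mean inhibition across valid replicates above about 55%, limit read from the data; inconclusive = mean below that limit but half or more replicates reach it; inactive = mean below it, under half of replicates reach it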;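 also: signal also drops with host cell toxicity which is not excluded here; 0% = plate median of DMSO wells and 100% = zero luminescence signal; higher percent means less beta-gal luminescence so fewer parasites; stock transfer was 50 nL into about 50 µL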
Vif A3G: inhibitors of Vif binding to APOBEC3G peptide, primary screen, biochemical, TR-FRET, GST-Vif 1-94, biotin-A3G peptide, dose response retest (AID 1117319); Virion infectivity factor (Human immunodeficiency virus type 1 group M subtype B (isolate …; TR-FRET GST-Vif / biotin-A3G peptide binding; higher % means a stronger effect; test concentration not given here; strong numbers were not always called active; inhibition, %; hits with a dose series show IC50 in µM; actives 0.57% (n = 260,000);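 active = above the screen mean plus three standard deviations and confirmed in dose response; inconclusive = results disagree or hit not tested in dose response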;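 also: Vif residues 1-94 fused to GST binding biotinylated APOBEC3G peptide 110-148; 0% = full assay without inhibitor and 100% = GST in place of GST-Vif; retest series ran down from 100 µM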
LANA-H2B inh: blockers of LANA interaction with H2A/H2B – biochemical, FP readout, HTS, primary screen. actives 0.6% (n = 320,000). inhibition, % (test concentration not listed). cell-free LANA-H2A/H2B peptide, fluorescence polarization. Protein LANA1 (Human herpesvirus 8 type P (isolate GK18)), Q9QR71; in the data active = inhibition mostly above about 10%, no sharp cut-off; inactive = mostly below about 6.7%;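 also: stock transfer was 7.5 nL into about 10 µL; 0% = median of vehicle wells and 100% = median of positive control wells; one replicate is shown; the record names a cut of 25% in any replicate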
Target sequence (Q9QR71 whole entry, looked up): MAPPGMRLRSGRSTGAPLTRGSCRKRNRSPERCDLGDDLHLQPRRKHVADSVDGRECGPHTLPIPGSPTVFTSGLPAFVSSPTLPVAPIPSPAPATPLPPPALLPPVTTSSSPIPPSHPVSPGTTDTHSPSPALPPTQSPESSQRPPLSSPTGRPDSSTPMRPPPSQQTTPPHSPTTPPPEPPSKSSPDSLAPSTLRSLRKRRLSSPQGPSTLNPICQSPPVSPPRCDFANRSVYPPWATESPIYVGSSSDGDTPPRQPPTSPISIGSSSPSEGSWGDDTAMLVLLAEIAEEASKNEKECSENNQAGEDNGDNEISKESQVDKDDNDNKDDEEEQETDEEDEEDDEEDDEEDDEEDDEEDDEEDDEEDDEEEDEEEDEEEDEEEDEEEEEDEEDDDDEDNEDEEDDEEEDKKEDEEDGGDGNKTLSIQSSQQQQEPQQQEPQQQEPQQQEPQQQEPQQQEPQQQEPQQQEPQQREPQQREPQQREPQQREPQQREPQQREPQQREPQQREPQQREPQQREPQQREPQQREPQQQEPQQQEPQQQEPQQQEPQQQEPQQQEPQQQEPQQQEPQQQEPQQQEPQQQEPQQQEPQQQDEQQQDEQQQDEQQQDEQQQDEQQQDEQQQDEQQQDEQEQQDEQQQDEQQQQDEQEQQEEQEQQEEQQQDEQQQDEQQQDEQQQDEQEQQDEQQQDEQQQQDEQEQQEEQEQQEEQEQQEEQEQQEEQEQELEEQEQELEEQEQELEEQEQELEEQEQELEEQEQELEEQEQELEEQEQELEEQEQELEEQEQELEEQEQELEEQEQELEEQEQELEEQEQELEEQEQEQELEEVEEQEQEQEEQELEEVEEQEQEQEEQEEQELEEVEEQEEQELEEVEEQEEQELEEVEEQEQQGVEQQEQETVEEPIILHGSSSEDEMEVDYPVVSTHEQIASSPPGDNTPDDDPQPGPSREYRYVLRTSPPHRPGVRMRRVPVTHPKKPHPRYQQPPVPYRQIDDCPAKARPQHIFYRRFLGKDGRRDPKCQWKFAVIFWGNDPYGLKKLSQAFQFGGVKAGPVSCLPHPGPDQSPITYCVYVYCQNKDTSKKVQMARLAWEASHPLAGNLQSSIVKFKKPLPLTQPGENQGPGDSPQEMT
* marks the source's active call; other numbers are inactive results; ? = inconclusive; · = no result given; & = joins results of further samples.

Fields: RanGTP-Imp inh	Beta cell apopt	Calb FLC	MLL AF4-AF9 inh	A1 inh	T cruzi repl	Vif A3G	LANA-H2B inh
- CCCNC(=O)c1ccccc1NC(=O)c1ccc2c(c1)NC(=O)C(C)S2 (stereo not given)
    -0.7	·	10	1.2	-0.1	?	·	-1.1
- C[C@H](CO)N1C[C@H](C)[C@@H](CN(C)C(=O)NC2CCCCC2)Oc2ccc(NC(=O)C3CCCCC3)cc2C1=O
    ·	-1	·	-6.9&-4.1	-0.2	·	·	-3.9
- O=C(CSc1ncnc2ccccc12)c1ccco1
    ?	-6	1	·	-1.4	-5	1%	1.4
- O=C(c1cnn(C(=O)c2ccco2)c1)c1cc(F)ccc1O
    ·	-6	·	-0.2	-0.4	·	·	0.2
- Cc1ccc(NC(=S)N2CCCC2)cc1
    -1.6	-5	30	-0.8	-0.6	-17	-4%	1.3
- Cc1cccc(CNC(=O)C2CCC(=O)N(C3CCCC3)C2)c1 (stereo not given)
    -0.5	-2	1	-3.4	-0.9	-3	·	1.5
- O=C(c1ccc(C(F)(F)F)n(Cc2ccc(Cl)cc2)c1=O)N1CCOCC1
    -1.2	-7	-1	0.2	-0.5	21	0%	-1.4
- Cc1cccc(NC(=O)/C=C/c2ccc3c(c2)OCO3)n1
    -1.4	·	18	·	-7.5	-36	21%	0.1
- CC[C@](C)(O)c1cc2ccccc2c(=O)o1
    ·	-3	·	2.2	-0.6	·	·	8.0
- c1ccc(CN2CCOCCOCCOCCOCC2)cc1
    0.2	-2	-5	·	1.0	9	4%	2.4
- CCOC(=O)N1CCN(c2ccc(Cl)c(Cl)c2)CC1
    -3.7	-3	-22	·	-0.6	-10	5%	4.2
- COc1cccc(CNc2ccccc2O)c1OCc1ccccc1F
    2.7	-6	34	22	-0.2	-9	-1%	-2.3
- O=C(N/N=C\c1ccncc1)c1ccc(Br)s1
    1.1	-10	-5	-0.3	0.2	19	·	-9.0
- O=C(CCn1cncn1)N1CCCC(N2CCN(c3cccc(C(F)(F)F)c3)CC2)C1 (stereo not given)
    -0.4	-4	-3	0.7	1.0	4	·	-5.8
- C=CCSC1=N/C(=C\C=C\c2ccco2)C(=O)S1
    -11	0	2	·	1.2	-21	1.1µM*	9.9
- COc1ccccc1NC(=O)COC(=O)c1ccc(N2CCCC2=O)cc1
    ·	-6	·	0.5	0.6	·	-5%	-143
- COc1ccc(OC)c(NC(=O)c2ccc(OCC(=O)N3CCOCC3)c(OC)c2)c1
    -1.4	1	4	-10	1.1	-2	-4%	-1.4
- CC(C)CN(C(=O)CN1CCN(c2ccc(O)cc2)CC1)c1c(N)n(CC(C)C)c(=O)[nH]c1=O
    -0.8	·	-1	7.6	0.3	-6	12µM*	0.8
- COc1ccc(NC(=S)N2CCN(C(=O)C3CCCO3)CC2)c(OC)c1 (stereo not given)
    -3.1	1	-9	-1.2	-0.2	-21	?	1.3
- Nc1ccc(C(=O)OCCCc2nc3ccccc3[nH]2)cc1
    2.1	-3	9	·	0.3	-4	-9%	1.5
- COc1ccc(C2CC(=O)NC3=C2C(=O)CCC3)cc1Cl (stereo not given)
    ?	-3	0	·	0.8	-3	30%	-3.5
- Cc1ccc(C)c(OCC(=O)NC2CCCCCC2)c1
    2.3	·	-31	-1.3	-0.4	20	-4%	-3.2
- CC(C)CCNC(=O)c1ccccc1NC(=O)C1=CSCCO1
    2.2	-3	-7	-3.0	0.5	26	·	7.1
- CS(=O)(=O)N1CCC(Oc2ccccc2C(=O)N2CCC[C@H]2CO)CC1
    -0.6	-1	9	-0.8	0.4	8	3%	-0.9
- C=CCNc1cc(C)oc(=O)c1C(=O)CC
    4.7	-2	10	-0.2	-1.3	-2	5%	-2.3
- Cc1ccc(C)c(S(=O)(=O)NNC(=O)Nc2ccccc2Cl)c1
    2.4	-1	18	2.0	0.2	6	·	6.5
- COc1ccc(/C=C(\NC(=O)c2ccc([N+](=O)[O-])cc2)C(=O)NCCCN2CCOCC2)cc1
    -1.1	-9	10	-3.3	0.9	-18	·	1.5
- Cc1ccc(NC(=O)c2cnn(-c3ccccc3)c2C)cc1C
    8.1	3	5	0.9	-6.3	9	·	-3.2
- COc1ccc(-c2csc(NC(=O)C3CCN(C(=O)c4ccc(F)cc4)CC3)n2)cc1OC
    0.5	6	-9	2.9	-0.5	25	·	2.9
- COCCN(C(=O)c1oc2ccccc2c1COC)c1c(N)n(CC(C)C)c(=O)[nH]c1=O
    ·	1	·	-0.2	-0.3	·	·	7.9
- Cc1ccc(N(C(=O)c2cc3ccccc3oc2=O)C2C=CS(=O)(=O)C2)cc1 (stereo not given)
    ?	-6	0	-1.4	0.0	-34	10%	-5.7
- Cc1ccc(-c2csc3ncnc(SCC(=O)NCC4CCCO4)c23)cc1 (stereo not given)
    ·	-4	·	-1.1	0.0	·	22%	2.2
- Cn1ncc(N2CCN(S(=O)(=O)c3ccc(Br)cc3)CC2)c(Cl)c1=O
    0.1	-1	13	-1.5	0.1	14	-7%	-1.4
- O=C(NNC(=O)c1cc2ccccc2[nH]1)OCc1ccccc1
    ·	-14	·	-9.2	-0.9	·	·	0.4
- Cc1ccc(S(=O)(=O)Oc2cccc(/C=N/Nc3ccc(C(=O)O)cc3)c2)cc1
    -1.6	-5	9	0.4	-7.7	4	-7%	0.3
- CC1=NN(c2ccccc2C(=O)O)C(=O)C1N=Nc1ccccc1 (stereo not given)
    -0.1	-4	14	3.9	-1.4	12	·	-1.7
- Cc1ccccc1SCC(=O)Nc1cccc(C#N)c1
    -0.7	-8	-4	·	-0.3	-3	-4%	3.3
- Cc1cccc(C)c1NC(=O)N1C2CCCC1CC(NC(=O)C(C)(C)C)C2 (stereo not given)
    -4.2	1	0	·	-0.2	-6	-3%	2.0
- NS(=O)(=O)c1ccc(CCNC(=O)C2CCCN2C(=O)OCc2ccccc2)cc1 (stereo not given)
    1.8	-5	1	-1.2	-0.1	-11	23%&-5%	2.7&-11
- CC(C)[C@H](NC(=O)[C@@H]1Cc2ccccc2CN1C(=O)OC(C)(C)C)C(=O)NCC1CCC(C(=O)O)CC1 (stereo not given in full)
    3.4	0	10	-0.7	-0.6	-17	5%	1.4
- O=c1ccc(-c2ccc(S(=O)(=O)N3CCN(c4ccccc4)CC3)o2)n[nH]1
    7.2	-2	-13	-1.8	-0.2	4	4%	8.6
- COc1cc(NC(=O)CSc2nc(C)c(C)c(C)n2)cc(OC)c1
    1.6	-3	-6	-4.4	0.6	9	3%	-2.3
- CCc1cc(=O)n2[nH]c(C)c(-c3ccc(OC)cc3)c2n1
    3.6	1	6	6.8	-0.6	-10	-3%	-3.9
- CCCCCCC(=O)Nc1ccc(C(=O)N/N=C/c2cccnc2)cc1
    -3.1	-2	-24	·	-0.2	-1	-6%	3.0
- COC(=O)c1ccc(C23CC4(C2)[C@H](CN(Cc2cccnc2)[C@@H]4c2ccccc2)C3c2ccccc2)cc1 (stereo not given in full)
    -3.9	7	-17	·	0.2	20	·	3.9
- COc1ccccc1NC(=O)C(C)OC(=O)CCNS(=O)(=O)c1ccc(C)c(C)c1 (stereo not given)
    0.3	-1	1	0.8	0.9	-13	-2%	-4.3
- N#Cc1cccc(C#N)c1N1CCC(C#N)CC1
    -0.1	·	-15	-1.2	0.9	3	-8%	3.9
- CC(C)CCn1c(CN(C)Cc2ccccc2)nc2c1c(=O)n(C)c(=O)n2C
    2.9	7	-4	·	1.4	5	-1%	-0.6
- O=C(CNCC1CCCCC1)Nc1ccc(OC(F)(F)F)cc1
    -3.1	-1	-16	-30	-0.3	-2	2%	2.4
- O=C(NC1CC1)C1=C[C@H](c2coc3ccccc3c2=O)C[C@H](OCCCCO)O1
    8.3	·	16	-3.1	1.0	-23	·	0.5

(list continues)
Fields: RanGTP-Imp inh	Beta cell apopt	Calb FLC	MLL AF4-AF9 inh	A1 inh	T cruzi repl	Vif A3G	LANA-H2B inh
- Cc1cc(N2CCC(C(=O)NC3CCCCC3)CC2)nc(-c2ccccc2)n1
    4.8	-5	-60	·	-0.5	4	9%	-4.2
- Cc1cc(C(=O)NCC(=O)Nc2c(C)cccc2C)c2ccccc2n1
    ·	-5	·	-2.7	-0.2	·	?	-0.6
- O=C(Nc1ccc(N2CCCCC2)cc1)c1ccccn1
    -20	47	8	·	0.2	18	·	-1.4
- O=c1c2c3c(sc2ncn1/N=C/c1ccccc1)CCCC3
    1.2	-11	-17	·	0.0	5	-4%	-0.1
- NC(=O)COC(=O)c1ccc2c(c1)S(=O)(=O)c1ccccc1C2=O
    6.4	-4	-4	-3.0	-0.6	-11	·	1.2
- CCOc1ccccc1N=C1SC(CC(=O)Nc2ccc(OC)cc2OC)C(=O)N1CCC1=CCCCC1 (stereo not given)
    -1.3	76*	-1	3.0	0.1	58*	·	0.0
- CC1CCN(c2ccc(/C=N\Nc3nncn3N)cc2[N+](=O)[O-])CC1
    ·	2	·	·	0.0	·	-2%	-153
- CC(=O)Nc1nnc(SCC(=O)c2ccc3c(c2)Cc2ccccc2-3)s1
    1.0	-4	5	·	0.8	-25	·	3.9
- O=c1c(-c2ccc(F)cc2)coc2c3c(ccc12)OCCO3
    0.9	1	-10	·	-5.1	-9	25%	-2.4
- N#CCC(=N)N1CCN(c2ccccc2)CC1
    0.1	2	18	·	0.9	35	28%	-2.2
- CCOC(=O)Oc1ccc2c(=O)c(Oc3cc(C)cc(C)c3)coc2c1
    -0.4	4	-2	·	0.0	-10	0%	-2.5
- O=C1C=C(c2ccc(Cl)c(C(F)(F)F)c2)C[C@@H](c2ccc(F)cc2)C1
    ·	-5	·	5.1	0.0	·	·	6.8
- Cc1ccc(C(=O)N2CCc3cc4c(cc3C2C)OCCCO4)cc1 (stereo not given)
    ?	-1	·	6.9	0.6	33	·	1.8
- COc1ccc(-c2cn3cc(C(F)(F)F)cc(Cl)c3n2)cc1
    0.7	-2	-4	-3.2	-1.1	21	-12%	2.8
- CCOC(=O)c1ccc(NC(=O)CN2CCN(Cc3ccccc3)CC2)cc1
    4.3	3	9	2.8	-0.6	-6	6%	-1.9

Random draw from the library, and some 4.3% of all compounds hit somewhere here.
